CDC25B-CDK2 inh: primary biochemical HTRF screen for blockers of M-phase inducer phosphatase 2 binding to CDK2/cyclin A | P30305+P24941 | HTRF CDC25B-CDK2/CyclinA binding, anti-His/anti-Flag; stronger effect = higher value | z-score (test concentration not listed) | 94,000 compounds, 0.72% hits;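 also: score is relative to mean and SD of negative controls; strong numbers were not always called active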
TAR Tat displ: TAR RNA-Tat peptide displacers, HIV-1, primary screen, biochemical, FRET, FAM/TAMRA-labeled Tat; z-score (test concentration not listed); HIV-1 TAR RNA, Tat peptide displacement FRET; stronger effect = higher value; 100,000 compounds, 0.6% hits;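 also: score is relative to mean and SD of negative controls; some compounds called inactive have numbers as strong as hits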
* = called active by the depositor; x = no result given.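 The calls were made as follows: active = z-score from 3 up in half or more of its runs; inactive = the rest.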

SMILES	CDC25B-CDK2 inh	TAR Tat displ
Nc1nc(SCC(=O)c2ccc(Cl)cc2)nc2sc3c(c12)CCCCC3	-0.8	-0.28
CCCCOc1ccc(-c2ccc(C#N)cc2)cc1	-2.6	x
O=C(Cn1cnc2nc3c(cc2c1=O)CCCC3)Nc1ccc(F)c(Cl)c1	x	0.78
O=C(NCc1ccco1)C1CCN(c2ccccc2)C1=O (configuration not stated)	x	0.11
O=C(Nc1ccccc1F)C1Sc2nnc(-c3ccccc3)n2NC1c1ccc(F)cc1 (configuration not stated)	-0.45	1.8
C=CCSc1nc(=O)c2c(n1C)NC(=O)CC2c1cccc(F)c1F (configuration not stated)	-0.72	0.99
O=C(NCc1ccc2c(c1)OCO2)c1ccc(N2CCc3ccccc32)s1	x	0.47
COc1ccc(N2C(=O)c3cccc4cccc(c34)C2=O)cc1OC	-0.4	-0.28
Cc1nnc2c3ccccc3nc(Nc3ccccc3)n12	x	1.7
CCOc1ccc(C2Nc3ccc(C)cc3-c3cc(C)nn32)cc1 (configuration not stated)	-2.5	0.83
CCOC(=O)N1CCN(Cc2nc3c(c(=O)n(C)c(=O)n3C)n2CCC(C)C)CC1	0.56	1.1
O=C(C1CC(c2ccccc2F)=NO1)N1CCc2ccccc2C1 (configuration not stated)	-0.17	0.13
O=C(Nc1cccnc1)c1cc2c(s1)-c1ccccc1OC2	-1.2	2.9
O=C(c1ccccc1Br)N1N=C(C2CCCCC2)CC1(O)C(F)(F)F (configuration not stated)	-2.5	x
Cc1nc2ccc(S(=O)(=O)N(C)CC(=O)NC3CS(=O)(=O)CC3Cl)cc2s1 (configuration not stated)	-1	0.04
Cc1cc2c(cc1S(=O)(=O)N1CCCCC1C)OCC(=O)N2 (configuration not stated)	x	2.9
CCN(CC)c1ccc(C2N(C)c3ccccc3N2C)cc1	-0.7	x
O=C(CC1=NS(=O)(=O)c2ccccc2N1)Nc1ccc(Br)cc1F	x	-0.18
O=C1CC(c2cccc(F)c2F)c2c(nc(SCc3ccccc3Cl)[nH]c2=O)N1 (configuration not stated)	-0.89	0.12
COc1ccc(N(C)c2c(-c3ccc(C(C)C)cc3)c(=O)c2=O)c(OC)c1	x	2.3
Clc1ccc(-n2ncc3c(Nc4ccccc4)ncnc32)cc1	x	1.4
O=C(Cn1c(=O)n(Cc2ccco2)c(=O)c2sc3ccccc3c21)Nc1ccccc1F	-1.9	-0.85
O=C(CCc1nc(CSc2nc3ccccc3s2)no1)Nc1cccc(Cl)c1	x	1.3
Cn1c(=O)[nH]c2ncn(C)c2c1=O	-2.8	0.61
COc1ccc(OC)c(C2SCCN2S(=O)(=O)c2cccc(C)c2)c1 (configuration not stated)	-1.7	0.36
CCN1C(=O)c2ccccc2Sc2ccc(NC(=O)NCC3CCCO3)cc21 (configuration not stated)	1.6	1.9
O=C1c2cccnc2C(=O)N1Cc1ccc(S(=O)(=O)NCC2CCCO2)s1 (configuration not stated)	x	0.81
COC(=O)C1=NN(c2ccc(OC)cc2)C2(S1)SC(C(=O)OC)=C(C)N2C (configuration not stated)	-2.8	0.72
CCCCCC(=O)Nc1c(C)n(C)n(-c2ccccc2)c1=O	-1.3	-0.26
CC(=O)OC(C(=O)Oc1ccc2c(c1)C(C)=CC(C)(C)N2)c1ccccc1 (configuration not stated)	-2.1	-8.8
CCOC(=O)c1c(-c2ccccc2)oc2cc(Br)c(OCC(=O)OC)cc12	-5.7	x
Cc1c(C(=O)NCCN2CCOCC2)oc2ccc3c(c12)C(O)CC1(CCCCC1)O3 (configuration not stated)	x	0.98
Cc1ccc(C)c(OCc2nnc(SCc3cc(=O)c4cc(Cl)ccc4[nH]3)n2C)c1	x	-0.1
Cc1cc(C)n(-c2ccc(Sc3ccccn3)nn2)n1	-0.83	x
Cc1cc(C)cc(Oc2c(C)oc3c(CN(C)C)c(O)ccc3c2=O)c1	-3.3	-1.1
Cc1ccc(-n2c(=O)c(C#N)cc3c(=O)n4cc(C)ccc4nc32)c(C)c1	-2.3	-0.64
CCOC(=O)c1ccc(N2C(=O)C3ON(c4ccccc4C)C(c4cccs4)C3C2=O)cc1 (configuration not stated)	-0.49	3.6
O=C(CCc1nc2cccnc2n1Cc1cccs1)NC1CCCCC1	-0.17	-4
Cc1[nH]c2ccccc2c1C1(O)C(=O)N(Cc2cccs2)c2ccccc21 (configuration not stated)	-0.63	0.02
COC(=O)Cc1cc(=O)n2[nH]c(NCc3cc(F)cc(F)c3)nc2n1	-0.71	0.43
O=C(C(=O)N(Cc1ccccc1)Cc1ccccc1)c1c[nH]c2ccccc12	-1.2	0.74
Cc1n[nH]c(C)c1S(=O)(=O)N(CC(=O)O)c1ccc2c(c1)OCO2	-0.06	x
COc1cccc(OCC(=O)Nc2c(C(=O)Nc3ccccc3OC)oc3ccccc23)c1	-2.6	3.9
Cn1c(N2CCCCC2)nc2c1c(=O)[nH]c(=O)n2C	-0.5	x
CC(C)Oc1ccc(COC2C(C(O)CO)OC3OC(C)(C)OC32)cc1 (configuration not stated)	-1.2	x
O=C1NC(c2ccc(F)cc2)(C(F)(F)F)C(=O)N1c1ccccn1 (configuration not stated)	0.21	0.54
C=C(C)Cn1c(C2CC(=O)N(c3ccc(Cl)cc3)C2)nc2ccccc21 (configuration not stated)	-0.47	2.7
O=C(NCCCSC1CCCCC1)c1csc2c1CCCC2	-2.1	1.7
C=CCNC(=O)c1ccc(C)c(NC2=NC3CS(=O)(=O)CC3S2)c1 (configuration not stated)	0.29	0.74
O=C(NCC1CC1)Nc1ccccc1	-1.9	x
COc1ccc(C2C3=C(CCCC3=O)Nc3c2c(=O)n(C)c(=O)n3C)cc1 (configuration not stated)	-0.51	x
Cc1cccn2c(=O)c(C(=O)NCCCN3CCOCC3)c(O)nc12	-1.6	-0.32
N#CC1=C(N)Oc2c(ccc3ccccc23)C1c1ccc(C(F)(F)F)cc1 (configuration not stated)	-0.16	x
NC(=O)c1c(NC(=O)c2nn(-c3ccc(F)cc3)ccc2=O)sc2c1CCCC2	-1.8	0.48
CCc1ccc2ncc3c(-c4ccc(F)cc4)n[nH]c3c2c1	3.3	1.6
CCOCCOC(=O)C1=C(C)NC2=C(C(=O)CC(C)(C)C2)C1c1cccc(Cl)c1 (configuration not stated)	-0.95	1.1
N#CC1=C(N)Oc2c(c(=O)[nH]c3ccccc23)C1c1ccncc1 (configuration not stated)	-2.6	x
COC(=O)c1sccc1S(=O)(=O)NC1CCS(=O)(=O)C1 (configuration not stated)	-0.57	x
O=C(Nc1ccc2c(c1)OCCO2)C1CCN(S(=O)(=O)c2cnc[nH]2)CC1	-0.99	1.1
COc1cc(C2C3=C(CCCC3=O)NC3=C2C(=O)CCC3)ccc1O	-0.73	1.3

A portion of the results above:
SMILES	CDC25B-CDK2 inh	TAR Tat displ
Cn1c(N2CCCCC2)nc2c1c(=O)[nH]c(=O)n2C	-0.5	x
CC(C)Oc1ccc(COC2C(C(O)CO)OC3OC(C)(C)OC32)cc1 (configuration not stated)	-1.2	x
O=C1NC(c2ccc(F)cc2)(C(F)(F)F)C(=O)N1c1ccccn1 (configuration not stated)	0.21	0.54
C=C(C)Cn1c(C2CC(=O)N(c3ccc(Cl)cc3)C2)nc2ccccc21 (configuration not stated)	-0.47	2.7
O=C(NCCCSC1CCCCC1)c1csc2c1CCCC2	-2.1	1.7
C=CCNC(=O)c1ccc(C)c(NC2=NC3CS(=O)(=O)CC3S2)c1 (configuration not stated)	0.29	0.74
O=C(NCC1CC1)Nc1ccccc1	-1.9	x
COc1ccc(C2C3=C(CCCC3=O)Nc3c2c(=O)n(C)c(=O)n3C)cc1 (configuration not stated)	-0.51	x
Cc1cccn2c(=O)c(C(=O)NCCCN3CCOCC3)c(O)nc12	-1.6	-0.32
N#CC1=C(N)Oc2c(ccc3ccccc23)C1c1ccc(C(F)(F)F)cc1 (configuration not stated)	-0.16	x
NC(=O)c1c(NC(=O)c2nn(-c3ccc(F)cc3)ccc2=O)sc2c1CCCC2	-1.8	0.48
CCc1ccc2ncc3c(-c4ccc(F)cc4)n[nH]c3c2c1	3.3	1.6
CCOCCOC(=O)C1=C(C)NC2=C(C(=O)CC(C)(C)C2)C1c1cccc(Cl)c1 (configuration not stated)	-0.95	1.1
N#CC1=C(N)Oc2c(c(=O)[nH]c3ccccc23)C1c1ccncc1 (configuration not stated)	-2.6	x
COC(=O)c1sccc1S(=O)(=O)NC1CCS(=O)(=O)C1 (configuration not stated)	-0.57	x
O=C(Nc1ccc2c(c1)OCCO2)C1CCN(S(=O)(=O)c2cnc[nH]2)CC1	-0.99	1.1

Further compounds follow:
SMILES	CDC25B-CDK2 inh	TAR Tat displ
Cn1c(SCc2cc(=O)c3cccc(Cl)c3[nH]2)nnc1-c1ccccc1	x	0.84
COc1ccccc1NC(=O)c1cc2c(s1)-c1ccccc1S(=O)(=O)C2	-0.09	0.78
CCn1cc(S(=O)(=O)c2ccc(Cl)cc2)c(=O)c2cc(F)c(N3CCCCC3)cc21	x	0.61
O=C(CC(=O)Nc1ccccc1)Nc1ccccc1	-1.3	x
CCCC(=O)Nc1nnc(S(=O)(=O)N(C)Cc2ccco2)s1	-0.68	0.51
O=C(NCc1ccc(S(=O)(=O)N2CCOCC2)s1)c1cnccn1	x	-0.19
COc1cc(NC(=O)C2CC(=O)NC3=C2C(=O)CCC3)cc(OC)c1 (configuration not stated)	-2.3	2
O=C(CSc1nc(-c2ccccc2F)nc2cc(=O)[nH]n12)NCCCc1ccccc1	x	-0.29
COc1ccc(-c2csc3ncnc(NCc4ccc(Cl)cc4)c23)cc1	x	0.1
CCCCc1c(C)nc(N2CCOCC2)[nH]c1=O	-2.1	2.9
COc1ccc2nc(C)cc(Nc3ccc(Br)cc3)c2c1	-2.5	0.52
CC1Sc2ccc(S(=O)(=O)C(C)CC(=O)Nc3ccc(Cl)cc3)cc2NC1=O (configuration not stated)	x	0.07
Cc1c(N2CCN(S(=O)(=O)c3cccc4nsnc34)CC2)c(=O)n(C)c(=O)n1-c1ccccc1	x	-1.3
O=C(CCc1nnc2ccc(N3CCCC3)nn12)Nc1nccs1	x	0.85
CCn1c(=O)n(CC2CCC(C(=O)NCCCOC)CC2)c(=O)c2sccc21 (configuration not stated)	x	1.3
COc1ccc(OC)c(-c2noc(CSc3nnc(C)n3-c3ccc(C)c(C)c3)n2)c1	-1.4	-0.66
Cc1nc(SCc2ccc(Cl)cc2)nc2ccccc12	-0.97	x
CCCN(CCC)CCCNC(=O)c1cc2c(s1)-c1ccc(Cl)cc1S(=O)(=O)C2	-1.9	0.48
c1ccc2c(c1)ncn1nnnc21	-2.4	x
CSc1ccc(C2c3c(oc4cc(C)cc(C)c4c3=O)C(=O)N2CC2CCCO2)cc1 (configuration not stated)	-0.91	-0.4
CCOC(=O)c1c[nH]n2c(=O)c3c(nc12)CCNC3	-0.66	2.8
C=CCn1c(NCc2ccccc2F)nc2ccccc21	-0.19	2.6
C#CCSc1nc2c(c(=O)[nH]1)C(c1ccccc1OC(C)C)CC(=O)N2 (configuration not stated)	-1.3	2.3
Brc1ccc(C2C=C(c3cccs3)Nc3nnnn32)cc1 (configuration not stated)	-2	x
CCCOc1ccccc1-c1nnc2n1N=C(c1ccccc1)CS2	-1.6	0.18
COc1ccc(-c2onc(C)c2C)cc1S(=O)(=O)NC1CC1	x	0.66
COc1ccccc1-c1nnc2sc(-c3cccnc3)nn12	-1.1	2.4
COc1ccc(C2OCC(C)(C)n3c(-c4ccccc4)c4c(=O)n(C)c(=O)n(C)c4c32)c(OC)c1 (configuration not stated)	-2.7	-0.69
O=c1[nH]nnc2c1sc1nc(-c3ccccc3)cc(-c3ccco3)c12	-1.1	-0.25
c1ccc(OCc2nn3c(C4COc5ccccc5O4)nnc3s2)cc1 (configuration not stated)	-0.78	0.72

Ordered by length of the SMILES (rising): some entries from above
SMILES	CDC25B-CDK2 inh	TAR Tat displ
c1ccc2c(c1)ncn1nnnc21	-2.4	x
COc1ccc(-c2onc(C)c2C)cc1S(=O)(=O)NC1CC1	x	0.66
CSc1ccc(C2c3c(oc4cc(C)cc(C)c4c3=O)C(=O)N2CC2CCCO2)cc1 (configuration not stated)	-0.91	-0.4

(continued)
SMILES	CDC25B-CDK2 inh	TAR Tat displ
Cc1cc2nc(COC(=O)c3ccccc3)cc(=O)n2o1	x	-0.03
O=S(=O)(NC1CCCC1)c1ccc(-n2cnnn2)cc1	-1.9	1.3
Cc1noc2ncnc(N3CCCC(C(=O)NCCCN4CCN(C)CC4)C3)c12 (configuration not stated)	x	1.1
O=C(Nc1ccccn1)NC1CCS(=O)(=O)C1 (configuration not stated)	-0.97	-0.07
O=C(Nc1c2c(nn1-c1ccc(Cl)cc1)CS(=O)(=O)C2)c1ccc2c(c1)OCO2	-1.9	x
COC(=O)c1sc2cccc(F)c2c1S(=O)(=O)Nc1cccc(F)c1	x	0.83
Cn1cnc(S(=O)(=O)Nc2ccccc2SCc2c(F)cccc2Cl)c1	-2.5	x
CCOc1ccc(N2C(=O)c3cccc4cc([N+](=O)[O-])cc(c34)C2=O)cc1	-2	x
COc1ccc(OC)c(CN2CCc3nc(N4CCOCC4)ncc3C2)c1	x	1.7
Cc1cc(F)ccc1S(=O)(=O)Nc1ccc(Cl)c(N2CCCS2(=O)=O)c1	x	-0.74
CCCCC(=O)Nc1nnc(SCc2cc(=O)n3nc(CC)sc3n2)s1	x	0.27
CCCNC(=O)N1CCN(CC(=O)c2c(C)n(C)c3ccccc23)CC1	x	0.18
CCOC(=O)c1c(CS(=O)(=O)c2ccccc2)n(C)c2cc(Br)c(O)cc12	-1.4	1.2
Fc1ccccc1C1NCCc2c1[nH]c1ccccc21 (configuration not stated)	0.35	0.08
CCOc1ccccc1OCc1nn2c(-c3ccc(F)cc3)nnc2s1	0.33	2.4
O=C(Nc1cnc2sc3c(n2c1=O)CCCC3)c1ccccc1Cl	0.61	1
CC1CCCCN1CCCNc1nn2nnnc2c2ccccc12 (configuration not stated)	-2	-0.84
Cc1oc(-c2cccs2)nc1CSc1nc2ncccc2[nH]1	x	-0.19

Source: PubChem
